From PubChem BioAssay
VDR inhibitor: Inhibitors of the vitamin D receptor (VDR): qHTS; 0.93% of 400,000 active; VDR-SRC2-3 peptide fluorescence polarization, 2 h; Potency, µM, for the others: max response, negative = inhibition, hits mostly inhibitors; Vitamin D3 receptor (Homo sapiens), P11473; active = well fitted inhibition curve with a large enough effect; inconclusive = small, poorly fitted or top-dose-only effect, or another doubt; inactive = no such curve, though single readings can be large or run the other way; also: series mostly up to about 120 µM
Target sequence (P11473 whole entry, looked up): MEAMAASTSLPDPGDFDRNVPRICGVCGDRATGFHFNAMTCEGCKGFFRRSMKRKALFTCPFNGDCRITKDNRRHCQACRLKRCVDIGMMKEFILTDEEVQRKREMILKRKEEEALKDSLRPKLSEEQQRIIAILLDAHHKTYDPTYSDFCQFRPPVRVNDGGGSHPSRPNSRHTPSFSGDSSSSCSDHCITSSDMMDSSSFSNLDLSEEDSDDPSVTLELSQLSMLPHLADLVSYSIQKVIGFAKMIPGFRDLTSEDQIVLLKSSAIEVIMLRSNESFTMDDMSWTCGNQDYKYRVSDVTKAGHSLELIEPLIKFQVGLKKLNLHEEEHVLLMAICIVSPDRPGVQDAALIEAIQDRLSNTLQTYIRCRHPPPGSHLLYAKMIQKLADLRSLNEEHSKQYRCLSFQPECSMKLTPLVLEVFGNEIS
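Fluorescence polarization assay measuring small-molecule disruption of VDR binding to the coregulator peptide SRC2-3. Compounds were pin-transferred (23 nl) into the reagent mix and incubated 2 h at room temperature before reading.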
* marks the source's active call; other numbers are inactive results; ? = inconclusive; & = joins results of further samples. % is scaled to controls: 0 for no effect and ±100 for the full control effect; potency is read from the fitted curve at half-maximal effect. Some of the compounds tested; the hit share may differ from the screen's.

CC1CCCCN1c1nnc(NC(=O)c2cc(-c3ccc(Br)cc3)on2)s1 (centres undefined)
  VDR inhibitor = -3.0%
Cc1ccnc(N2CCC(C(=O)NCc3ccc4c(c3)OCO4)CC2)n1
  VDR inhibitor = 9.3%
O=C(NCc1ccco1)C(=O)c1c[nH]c2ccccc12
  VDR inhibitor = -0.1%
O=C(COc1ccccc1)N1CCN(S(=O)(=O)c2cccc([N+](=O)[O-])c2)CC1
  VDR inhibitor = -6.9%
COc1ccc(-c2cc(=O)oc3cc(OC(C)C(=O)NC(Cc4c[nH]c5ccc(O)cc45)C(=O)O)ccc23)cc1 (centres undefined)
  VDR inhibitor = 2.7%
Cc1ccc(N2CC(C(=O)Nc3ccc(S(=O)(=O)N4CCCC4)cc3)CC2=O)cc1 (centres undefined)
  VDR inhibitor = 9.3%
CCOc1ccccc1NC(=O)C12CC3CC(C1)CC(c1ccc(C)cc1)(C3)C2
  VDR inhibitor = 15.8%
Cc1ccc(-c2nnn3c2nc(NCCc2ccc(Cl)cc2)c2ccccc23)cc1
  VDR inhibitor = -7.3%
O=C(COc1ccc(-c2ccccc2)cc1)N1CCN(C(=O)c2cccs2)CC1
  VDR inhibitor = 6.2%
CC(=O)C(Cc1ccc(Cl)nc1)(Cc1ccc(Cl)nc1)C(C)=O
  VDR inhibitor = -7.9%

Cc1cccc(-n2ncc(C(=O)NCc3ccccn3)c2C2CCN(C(=O)OC(C)(C)C)CC2)c1
  VDR inhibitor = 27.3%
CCOc1cccc(-c2c(C(=O)N/N=C/c3sccc3C)nnn2-c2nonc2N)c1
  VDR inhibitor = 25.4%
CCOC(=O)N1CCN(Cc2nc(N)nc(Nc3ccc(Oc4ccccc4)cc3)n2)CC1
  VDR inhibitor = ?
Cc1ccc(NC(=O)NC2CC(=O)N(c3ccc4c(c3)OCCO4)C2)cc1 (centres undefined)
  VDR inhibitor = -19.4%
COc1cc2c(C(=O)NCc3ccc4c(c3)OCO4)cn(CC(C)C)c(=O)c2cc1OC
  VDR inhibitor = -3.3%
COc1ccc(Cl)cc1NC(=O)N1CCC(CN2CCCCCC2)CC1
  VDR inhibitor = 2.1%
CC(=O)Nc1ccc(SCc2ncc(-c3ccccc3)o2)cc1
  VDR inhibitor = -9.5%
CN(C)c1ccc(/C=N/NC(=O)C(O)c2ccc(Br)cc2)cc1 (centres undefined)
  VDR inhibitor = 5.6%
COc1ccc(-c2nc(CS(=O)CC(=O)NC3CCCC3)c(C)o2)cc1OC (centres undefined)
  VDR inhibitor = -1.9%
Cc1ccc2c(c1)NC(=O)[C@@]1(C)[C@@H](c3ccccc3)[C@H]3COc4ccc(Cl)cc4[C@@H]3N1C2=O
  VDR inhibitor = 0.2%

O=C(c1ccc(-c2cccc(Cl)c2Cl)o1)N1CCOCC1
  VDR inhibitor = -8.6%
C[C@H](NC(=O)[C@@H]1Cc2ccccc2CN1)C(=O)NCC1CCCO1 (some centres undefined)
  VDR inhibitor = -18.7%
O=S1(=O)C=C(Oc2ccc3ccccc3c2)c2ccccc21
  VDR inhibitor = -5.2%
COCCn1c(SCC(=O)c2ccc(CNC(C)=O)o2)nc2ccccc2c1=O
  VDR inhibitor = -2.7%
O=c1cc(NS(=O)(=O)c2ccccc2)nc(SCc2c(Cl)cccc2Cl)[nH]1
  VDR inhibitor = -7.3%
CCc1cc2c(SCc3ccc(C(=O)OC)o3)ncnc2s1
  VDR inhibitor = 3.4%
CC(C)n1ncc2c(C(=O)NCc3cccnc3)cc(C3CC3)nc21
  VDR inhibitor = -5.7%
Cc1ccnc2nc(NC(=O)c3ccco3)nn12
  VDR inhibitor = -1.9%
CCOC(=O)c1cnc(-n2nc(C)cc2C)nc1-n1nc(C)cc1C
  VDR inhibitor = -6.2%
Cc1ccccc1NC(=O)CSc1nc2c(c(-c3ccco3)c1C#N)CCCC2
  VDR inhibitor = -8.2%

COc1ccc(C(CC(=O)O)NC(=O)COc2ccccc2OC)cc1OC (centres undefined)
  VDR inhibitor = -5.8%
N#CCCN(C(=O)COC(=O)C1CCN(c2ccc(C(F)(F)F)cn2)CC1)c1ccc(F)cc1
  VDR inhibitor = 2.1%
O=C(CSc1nnc(CNC(=O)c2ccc(F)cc2)o1)Nc1ccc2c(c1)OCO2
  VDR inhibitor = -3.6%
COc1ccc2[nH]c(=O)c(CN(Cc3ccccc3OC)Cc3nnnn3CC3CCCO3)cc2c1 (centres undefined)
  VDR inhibitor = 3.8%
Cc1ccc(OCC(=O)NN2C(=O)c3ccccc3C2=O)cc1
  VDR inhibitor = -20.0%
CCOCCCn1c(SCC(=O)Nc2cccc(OC)c2)nc2ccccc2c1=O
  VDR inhibitor = 0.2%&-0.3%
CC(C)n1c(Nc2ccccc2)nc2ccccc21
  VDR inhibitor = -12.2%
CCOc1ccc(-n2nnc3c(=O)n(C/C=C/c4ccccc4)cnc32)cc1
  VDR inhibitor = -5.7%
Cc1ccc(-n2c(C)cc(C(=O)OCC(=O)N(CC(C)C)C3CCS(=O)(=O)C3)c2C)cc1 (centres undefined)
  VDR inhibitor = 6.0%
COc1ccc(CSc2nc(CSC)cc(N3CCOCC3)n2)cc1
  VDR inhibitor = 8.9%

CCOc1ccc(Cn2c(SCCCCC#N)nc3c2c(=O)n(C)c(=O)n3C)cc1OCC
  VDR inhibitor = ?
COC(=O)c1ccc(CN2CCN(CCc3ccccc3)C(CCO)C2)cc1 (centres undefined)
  VDR inhibitor = 1.2%
COC(=O)COc1ccc(S(=O)(=O)N2CCN(c3ccccc3F)CC2)cc1
  VDR inhibitor = 9.4%
CSc1nc(N(CCO)CCO)c2sc3nc(-c4ccco4)c4c(c3c2n1)CCC4
  VDR inhibitor = -11.4%
CCOC(=O)c1nnn(-c2nonc2N)c1-c1ccccc1Cl
  VDR inhibitor = 5.6%
Cc1cccc(C(=O)N2CCC(c3nc(-c4ccc(S(=O)(=O)N5CCOCC5)cc4)no3)CC2)c1
  VDR inhibitor = -10.6%
CCNC(=S)NN=C1c2ccccc2-c2ccccc21
  VDR inhibitor = -1.3%
COc1cc(OC)cc(C(=O)NCC2CCCN(C(=O)c3csc(C)n3)C2)c1 (centres undefined)
  VDR inhibitor = 17.6%
CCN(c1ccccc1)S(=O)(=O)c1ccc(NC(=O)c2cc(=O)c3ccccc3o2)cc1
  VDR inhibitor = 10.0%
CC1Cc2ccccc2N1C(=O)CCN1C(=O)C2C3C=CC(C3)C2C1=O (centres undefined)
  VDR inhibitor = -3.0%

CCCNS(=O)(=O)c1ccc(CCC(=O)NCC2CCCO2)cc1 (centres undefined)
  VDR inhibitor = -6.6%
O=C(Nc1ccc(NC(=O)c2ccc([N+](=O)[O-])o2)cc1Cl)c1ccco1
  VDR inhibitor = -13.6%
O=C(/C=C/c1ccccc1[N+](=O)[O-])NCc1ccc(Cl)cc1
  VDR inhibitor = -10.8%
CCN(CC)S(=O)(=O)c1ccc2c(c1)N(CC(=O)NCCCN1CCN(c3cc(C)ccc3C)CC1)C(=O)CO2
  VDR inhibitor = 10.8%
O=C1C2C3C=CC(CC3)C2C(=O)N1/N=C/c1ccc(O)cc1 (centres undefined)
  VDR inhibitor = 12.9%
CC(=O)Nc1ccc(S(=O)(=O)N2CCN(C(=O)CCC3CCCC3)CC2)cc1
  VDR inhibitor = -5.6%
CCOCC(=O)N1CCN(c2ccc([N+](=O)[O-])cc2)CC1
  VDR inhibitor = -10.9%
Cn1nc(C(F)(F)F)c(C(=O)Nc2ccc(F)cc2F)c1Cl
  VDR inhibitor = -10.4%
O=C(NC1CCCC1)c1ccc([N+](=O)[O-])s1
  VDR inhibitor = -13.1%
COC(=O)Cc1ccc(NC(=S)Nc2ccc(N3CCOCC3)cc2)cc1
  VDR inhibitor = -1.7%

Nothing new here: entries from further up.
CC1CCCCN1c1nnc(NC(=O)c2cc(-c3ccc(Br)cc3)on2)s1 (centres undefined)
  VDR inhibitor = -3.0%
Cc1ccnc(N2CCC(C(=O)NCc3ccc4c(c3)OCO4)CC2)n1
  VDR inhibitor = 9.3%
O=C(NCc1ccco1)C(=O)c1c[nH]c2ccccc12
  VDR inhibitor = -0.1%

(further entries)
COc1ccccc1NS(=O)(=O)c1ccc(C)c(C(N)=O)c1
  VDR inhibitor = 21.3%
O=C1CCN(CCc2ccccc2)CCN1[C@H](CO)c1ccccc1
  VDR inhibitor = -10.9%
O=C(CNC(=O)C(c1ccccc1)c1ccccc1)OCC(=O)c1cccc2ccccc12
  VDR inhibitor = -9.0%
COCCn1nnnc1CN(CCCN1CCOCC1)Cc1cc2c(C)ccc(C)c2[nH]c1=O
  VDR inhibitor = 9.0%
O=c1ccc(-c2ccccc2)n[nH]1
  VDR inhibitor = -12.7%
COc1ccc(S(=O)(=O)N(C)C[C@@H]2Oc3ccc(NS(C)(=O)=O)cc3C(=O)N([C@@H](C)CO)C[C@H]2C)cc1
  VDR inhibitor = 7.1%
COc1ccc2nc(NC(=O)CSc3ccccc3)sc2c1
  VDR inhibitor = -2.4%
Cc1c(C(=O)NNc2cc(=O)n(C)c(=O)n2C)cccc1[N+](=O)[O-]
  VDR inhibitor = -26.7%
Cc1nonc1C1CCCN1Cc1nc(-c2ccccc2Cl)oc1C (centres undefined)
  VDR inhibitor = -16.6%
Cc1nc2ccccc2n1-c1ccccc1
  VDR inhibitor = 2.9%

Shown as tab-separated lines: five of the compounds above
SMILES	VDR inhibitor
COCCn1nnnc1CN(CCCN1CCOCC1)Cc1cc2c(C)ccc(C)c2[nH]c1=O	9.0%
O=c1ccc(-c2ccccc2)n[nH]1	-12.7%
COc1ccc(S(=O)(=O)N(C)C[C@@H]2Oc3ccc(NS(C)(=O)=O)cc3C(=O)N([C@@H](C)CO)C[C@H]2C)cc1	7.1%
COc1ccc2nc(NC(=O)CSc3ccccc3)sc2c1	-2.4%
Cc1c(C(=O)NNc2cc(=O)n(C)c(=O)n2C)cccc1[N+](=O)[O-]	-26.7%

Going on with the list.
O=C(Nc1nnc(SCC(=O)N2CCCCC2)s1)C1CCCCC1
  VDR inhibitor = 3.3%
O=C(CN1C(=O)CCC1=O)Nc1ccc(S(=O)(=O)N2CCOCC2)cc1
  VDR inhibitor = -3.3%
CN(CCOc1ccc(Cl)c(Cl)c1)Cc1ccccc1
  VDR inhibitor = -25.0%
Cc1ccc(-c2noc(C3CCCN(S(=O)(=O)c4ccc(S(=O)(=O)N(C)C)cc4)C3)n2)o1 (centres undefined)
  VDR inhibitor = 7.2%
COc1ccc(/C=C2\OC(=O)c3c(OC)cccc32)cc1OC
  VDR inhibitor = 10.7%
N#Cc1ccc(C(=O)N(Cc2ccco2)Cc2cccs2)cc1
  VDR inhibitor = -2.3%
Clc1ccc2c(c1)C(c1cccs1)=NNC(c1cccnc1)=N2
  VDR inhibitor = 1.0%
CC(C(=O)O)N1C(=O)CSc2ncccc21 (centres undefined)
  VDR inhibitor = 3.2%
CCOc1ccc(-c2nc(-c3cccnc3)no2)cc1OCC
  VDR inhibitor = -0.1%
OC(Cn1cncn1)c1ccc(Cl)cc1Cl (centres undefined)
  VDR inhibitor = 12.2%

COc1cc(NC(=O)C2CC(=O)NC3=C2C(=O)CC(C)(C)C3)c(OC)cc1Cl (centres undefined)
  VDR inhibitor = -10.5%
CC(C)(C)[C@H]1COC(=O)CCCC/C=C\C[C@H](CC(=O)NCCO)C(=O)N1
  VDR inhibitor = 1.9%
CCn1c(Sc2ccc([N+](=O)[O-])cn2)nnc1-c1ccco1
  VDR inhibitor = -1.2%
Cc1ccc(OCC(=O)N(Cc2ccc(N(C)C)cc2)C2CCS(=O)(=O)C2)cc1 (centres undefined)
  VDR inhibitor = -2.5%
COCCn1c(N)c(N(Cc2ccccc2)C(=O)Cc2ccccc2F)c(=O)[nH]c1=O
  VDR inhibitor = 9.0%
COc1ccc(CCNC(=O)C(=O)Nc2ccc(C)c(C)c2)cc1OC
  VDR inhibitor = 2.8%
Cc1ccc(NC(=S)NN2CCN(C)CC2)c(C)c1
  VDR inhibitor = 4.7%
COc1cccc(/C=N/NC(=O)COc2cccc3cccnc23)c1O
  VDR inhibitor = 12.7%
Cc1cc(C)cc(OCC(=O)Nc2cccc(C(=O)O)c2)c1
  VDR inhibitor = 5.0%
Cc1cccc(NC(=O)CCOc2ccccc2)c1C
  VDR inhibitor = 9.0%

The last 3 entries of the part above come first, to join the parts:
COc1cccc(/C=N/NC(=O)COc2cccc3cccnc23)c1O
  VDR inhibitor = 12.7%
Cc1cc(C)cc(OCC(=O)Nc2cccc(C(=O)O)c2)c1
  VDR inhibitor = 5.0%
Cc1cccc(NC(=O)CCOc2ccccc2)c1C
  VDR inhibitor = 9.0%
CC(=O)Nc1ccc(S(=O)(=O)N[C@@H](C)C(=O)OCC(=O)Nc2ccc3c(c2)OCCO3)cc1
  VDR inhibitor = 5.8%
Cc1onc(-c2c(F)cccc2Cl)c1C(=O)OCC(=O)N1C(C)CCCC1C (centres undefined)
  VDR inhibitor = -10.7%
Cc1ccc(C)c(-n2c(SCC(=O)Nc3nonc3C)nnc2-c2ccoc2C)c1
  VDR inhibitor = -19.3%
COc1ccccc1N(CN1CCCC1=O)C(=O)c1ccccc1F
  VDR inhibitor = 2.6%
N=C(N)c1ccc(N=Nc2c(O)ccc3c2[nH]c2ccccc23)cc1
  VDR inhibitor = 26.1%
O=C(O)c1cc(NC(=O)c2cccc(F)c2)cc(NC(=O)c2cccc(F)c2)c1
  VDR inhibitor = -18.3%
Cc1cc(C(=O)Nc2ccon2)c(C)o1
  VDR inhibitor = 24.6%
COc1ccc(NC(=O)C(Cc2cc(C)cc(C)c2)C(C)C(=O)O)cc1 (centres undefined)
  VDR inhibitor = -19.2%
CCOC(=O)CC(N)c1cccc([N+](=O)[O-])c1 (centres undefined)
  VDR inhibitor = 3.9%
O=C(/C=C/c1ccccc1[N+](=O)[O-])Nc1ccc(S(=O)(=O)Nc2ncccn2)cc1
  VDR inhibitor = -6.4%
Brc1c(OCCOCCn2cncn2)ccc2ccccc12
  VDR inhibitor = -5.9%
Cc1ccccc1-c1nc(SCC(=O)N(C)c2ccccc2)c2c(=O)n(C)c(=O)n(C)c2n1
  VDR inhibitor = 10.3%
